High-throughput results (PubChem)
Vaccinia mCherry: vaccinia inhibition (mCherry reporter). Vaccinia virus mCherry reporter infection, fluorescence; about a quarter of the inactives have no number. Potency, µM (titrated, usually from 36.5 µM), without a hit: at the highest dose activity change, negative = inhibition, usual class: inhibitors. 0.63% of 310,000 active; active = well fitted inhibition curve with a large enough effect; inconclusive = small, poorly fitted or top-dose-only effect; inactive = no such curve, though single readings can be large or run the other way; tested in A549 cells; further: nearly all actives have a fitted effect of over 35% in size; inactives centre near -10
Vaccinia Venus: inhibitors of vaccinia virus (Venus reporter); Vaccinia virus Venus reporter expression, fluorescence; Potency, µM (titrated, usually from 36.5 µM), for inactives: top-dose activity change, negative = inhibition, most hits filed as inhibitors; 0.46% of 330,000 active; active means well fitted inhibition curve with a large enough effect; inconclusive means small, poorly fitted or top-dose-only effect; inactive means no such curve, though single readings can be large or run the other way; tested in A549 cells; further: nearly all actives have a fitted effect of over 30% in size; inactives centre near -10
* = called active by the depositor; i = inactive; ? = inconclusive; / = no result given; & = joins results of further samples; [ ] = dose if it differs, or a comment. On the % scale 0 is the no-effect control and ±100 the full control effect; potency means the concentration at half of the fitted maximal effect.

structure | Vaccinia mCherry | Vaccinia Venus
CC1CC(C)CN(CC(=O)c2ccc(OC(F)F)cc2)C1 (centres undefined) | -8% | -10%
C[C@H]1CN([C@@H](C)CO)S(=O)(=O)c2ccc(C#CC3(O)CCCC3)cc2O[C@@H]1CN(C)C(=O)Cc1cccnc1 | -3% | -14%
O=C(Nc1cc(Cl)cc(Cl)c1)N1Cc2ccccc2-n2nncc2C1 | i | -14%
CN(C)Cc1c(C(=O)N/N=C/c2ccc(OCc3ccc(F)cc3)cc2)nnn1-c1nonc1N | -9% | -17%
COc1cccc(NC(=O)c2cn(C3CCCCC3)c(=O)c3c2c2ccccc2n3C)c1 | 7% | -4%
CCCCC(=O)NC(c1ccc(N(CC)CC)cc1)c1ccc2cccnc2c1O (centres undefined) | ? | ?
O=C(COC(=O)c1ccccc1OCc1ccccc1Cl)NC1CC1 | -14% | -5%
CCOC(=O)c1c(C)oc2nc(C)nc(Nc3ccc(CC)cc3)c12 | -8% | -3%
COc1ccc(S(=O)(=O)NCCN2CCOCC2)c2ccccc12 | -8% | -5%
CC(=O)N1CCc2cc(C(=O)CN3CCN(c4cccc(Cl)c4)CC3)ccc21 | 6% | -5%
CSc1ccccc1OCc1cc(C(=O)NCCn2ccnc2C)no1 | -4% | -9%
N=C1/C(=C/c2ccc(OCc3ccccc3)cc2)C(=O)N=C2SC(CC(=O)N3CCOCC3)=NN12 | -17% | -3%
Cc1ccccc1CS(=O)(=O)Cc1ccc(C(=O)N2CCOCC2)o1 | -5% | -2%
O=C1NC(=Nc2ccc(Cl)cc2)SC1Cc1cccc(Cl)c1Cl (centres undefined) | -24% | -28%
Cc1ccc(C(NC(=O)C2CCN(Cc3ccc(Cl)c(Cl)c3)CC2)c2ccccn2)cc1 (centres undefined) | -21% | ?
COc1ccc(CNC(=O)CN(C(=O)CCC(=O)Nc2ccccn2)c2cc(C)ccc2C)cc1 | -9% | -17%
Cc1ccc(/C=C2/SC(=S)N(CC(=O)Nc3ncc(Cc4ccc(C)cc4)s3)C2=O)cc1 | / | -27%
O=C(O)[C@H](Cc1ccccc1)NC(=O)C(c1ccccc1)(c1ccccc1)c1ccccc1 | -4% | -10%
O=C(/C=C/c1ccc(S(=O)(=O)N2CCOCC2)cc1)N1CCN(c2ccccc2)CC1 | ? | ?
O[C@@H]1C[C@H](c2ccc(Cl)cc2)N(CC2CCCCC2)C[C@H]1n1cc(C2CC2)nn1 | -12% | -5%
CCOC(=O)CSc1cc(CS(=O)(=O)c2ccccc2)nc(-c2ccccc2)n1 | / | 8%
COc1ccc(NC(=O)CSc2nc3ccccc3c(=O)n2CCCN2CCCCC2)c(OC)c1 | -27% | -13%
CC(C)COC(=O)Cn1cnc2ccc(Br)cc2c1=O | i | -22%
CCOc1ccccc1OCCCC(=O)NCCc1ccc(S(N)(=O)=O)cc1 | -14% | -1%
O=C(Nc1ccccc1C(F)(F)F)C1CCN(C(=O)Cc2ccccc2)CC1 | i | -14%
CCCNC(=O)C1(C)CCN(C(=O)c2cc(F)ccc2C)C1 (centres undefined) | i | 0%
CSc1n[nH]c(-c2ccc(C(F)(F)F)cc2)n1 | -8% | 2%
COC(=O)/C(C#N)=C1/SC=C(C)N1c1ccccc1 | / | -11%
OCCN(CCO)CC(O)COCCC12CC3CC(CC(C3)C1)C2 (centres undefined) | / | -33%
C=CCN1[C@H](COCc2ccccc2)C=CS1(=O)=O | i | -7%
COc1ccc(Cl)cc1NC(=O)CSc1nnc2[nH]c(=O)cc(-c3ccccc3)n12 | -15% | -6%
CCCCNC(=S)NNC(=O)c1cc(C)on1 | -1% | -13%
CC(=O)N1CCCc2cc(S(=O)(=O)NCc3ccc(OC(C)C)cc3)ccc21 | -9% | -12%
COc1ccc(-n2ncc(C(=O)N3CCN(c4ncccn4)CC3)c2C2CCN(C(=O)OC(C)(C)C)CC2)cc1 | -4% | -9%
CC(=O)N1CCc2cc(Br)cc(S(=O)(=O)N3CCCCC3)c21 | ? | -11%
CCOc1ccc(C(C)=O)cc1Cn1nc(C(=O)O)c2ccccc2c1=O | -17% | -9%
CCN1CCN(CCC(=O)Nc2cc(OC)cc(OC)c2)CC1 | -10% | -2%
O=C(CNc1cccc(F)c1)Nc1cccc(S(=O)(=O)N2CCCCC2)c1 | 0% | -7%
C[C@H](O)[C@@H]1C(=O)N2CCc3ccc(-c4ccccc4)cc3[C@@H]2C[C@@H]1N(C)C(=O)NC1CCCCC1 | ? | -17%
COc1ccccc1CCNC(=O)C(=O)NCC(c1ccco1)S(=O)(=O)c1ccc(C)cc1 (centres undefined) | i | -5%

Pulled one by one from the list above, 4 records:
structure | Vaccinia mCherry | Vaccinia Venus
CCCNC(=O)C1(C)CCN(C(=O)c2cc(F)ccc2C)C1 (centres undefined) | i | 0%
O=C(CNc1cccc(F)c1)Nc1cccc(S(=O)(=O)N2CCCCC2)c1 | 0% | -7%
CCN1CCN(CCC(=O)Nc2cc(OC)cc(OC)c2)CC1 | -10% | -2%
COC(=O)/C(C#N)=C1/SC=C(C)N1c1ccccc1 | / | -11%

The listing continues:
structure | Vaccinia mCherry | Vaccinia Venus
COc1ccc(CCNC(=O)c2cc(Nc3cc(C)cc(C)c3)nc3ccccc23)cc1OC | -2% | ?
CN(C(=O)COc1cc(=O)n(C)c2ccccc12)c1ccc(Br)cc1 | -7% | -6%
CN(CC(O)COC(c1ccccc1)c1ccccc1)C1CCCCC1 (centres undefined) | -15% | -22%
Cc1cc(=O)oc2cc(OCC(O)Cn3ccnc3)ccc12 (centres undefined) | -5% | -12%
CC(C)(C)C1CCc2onc(C(=O)O)c2C1 (centres undefined) | i | 2%
COC(=O)C1=C(c2ccc(-c3ccccc3)c(F)c2)C[C@@H]2CC[C@H]1N2C(=O)NC1CCCCC1 | -19% | ?
O=C(NCc1ccccc1)C(c1ccccc1)N(C(=O)c1csnn1)c1ccc(F)cc1 (centres undefined) | -17% | -13%
Cc1ccc(CNS(=O)(=O)c2ccc(F)c(F)c2)n1C | -20% | 25%
CN(CCc1ccccc1)C(=O)c1ccc(NC(=O)Cc2ccc(NC(=O)C3CCCN(S(=O)(=O)c4cccc([N+](=O)[O-])c4)C3)cc2)cc1 (centres undefined) | ? | -18%
Cc1c(Br)c([N+](=O)[O-])nn1C(C)C(=O)NCc1ccco1 (centres undefined) | -14% | -7%
CC1CCCCC1NC(=O)CSc1nnc(C(F)(F)F)n1C (centres undefined) | -23% | -15%
COCCNC(=O)c1cccc(S(=O)(=O)N2CC3(C)CC2CC(C)(C)C3)c1 (centres undefined) | i | -12%
CC(C)C(NS(=O)(=O)c1ccccc1F)C(=O)OCC(=O)NCc1ccco1 (centres undefined) | -17% | -9%
CCc1cccc(NC(=O)c2ccc3c(c2)c(C)c(C)n3Cc2ccc(F)cc2)c1 | -11% | -9%
O=C(CCCN=C1NS(=O)(=O)c2ccccc21)OCc1ccccc1 | -12% | -8%
COc1ccc(CCNC(=O)CSc2nnnn2-c2ccc(OC)c(OC)c2)cc1OC | i | -5%
Cc1cc(C(=O)CN2C(=O)C(=O)N(C)C2=O)c(C)n1-c1cccc(S(=O)(=O)N2CCOCC2)c1 | ? | -14%
CC(=Cc1ccccc1)C=C1SC(=S)N(CCCC(=O)Nc2ccc(C(=O)O)c(O)c2)C1=O | i | -4%
NC(CCc1ccccc1)c1csc(NC(=O)Nc2cccc(Cl)c2)n1 (centres undefined) | -8% | -25%
COc1ccccc1NC(=O)CSc1nnc(COc2ccccc2C)o1 | i | 15%
CC1CN(C(=O)COC(=O)c2cc(=O)c3ccccc3o2)CC(C)O1 (centres undefined) | -2% | -2%
CCN(CC)Cc1c(C(=O)N/N=C/c2ccncc2)nnn1-c1nonc1N | ? | 0%
O=C(c1ccc(S(=O)(=O)NCc2ccco2)cc1)N1CCN(c2ccccc2)CC1 | -8% | -10%
O=[N+]([O-])c1ccc(F)cc1Oc1nc(-c2cccnc2)nc2ccccc12 | 3.5µM* | 5µM*
O=c1cnnc(Nc2ccc(F)cc2)[nH]1 | i | -6%
CC(C(=O)O)c1cccc(C(=O)c2ccccc2)c1 (centres undefined) | i | -8%&-9%
CCC(C)NC(=O)c1c(-c2cc(Cl)c(OC)c(Cl)c2)noc1C (centres undefined) | 1% | -2%
O=C(Nc1ccc2c(c1)CCC2)C1COc2ccccc2O1 (centres undefined) | -14% | -4%
CC(C)Cc1cc(CN2CCC(CO)(Cc3cccc(C(F)(F)F)c3)CC2)[nH]n1 | -7% | ?
Cc1cccc(N2CC(C(=O)Nc3ccccc3N3CCCC3)CC2=O)c1C (centres undefined) | -11% | -2%
O=c1[nH]c2cc3ccccc3cc2nc1-c1nnnn1C1CCCC1 | ? | 14%
COc1cc(/C=N/NC(=O)c2ccc(CN3c4cccc5cccc(c45)S3(=O)=O)cc2)cc(OC)c1O | -18% | -8%
COc1ccc(NC(C)C(=O)N/N=C/c2ccccc2OCc2ccc(Br)cc2)cc1 (centres undefined) | -15% | -6%
COc1ccccc1N(CC(=O)NCc1ccc2c(c1)OCO2)C(=O)CCC(=O)Nc1nccs1 | -15% | -8%
O=S(=O)(c1ccc2ccccc2c1)N(CC(O)CN1CCOCC1)c1ccccc1 (centres undefined) | / | -27%
OCCOCCn1c(C(CO)Nc2nc(-c3ccc(Cl)cc3)cs2)nc2ccccc21 (centres undefined) | -24% | ?
Cc1[nH]nc2c1C(c1ccsc1)C1=C(CC(C)(C)CC1=O)N2 (centres undefined) | ? | -11%
COc1cccc(C(=O)Nc2ccccc2NC(=O)c2cccc(OC)c2)c1 | i | -18%
Cc1c(CCNC(=O)c2ccc(Br)o2)sc2nc(-c3ccc(Cl)cc3)nn12 | -14% | -12%
COc1cc(OC)cc(-c2c(-c3ccc(F)cc3)c3cc(-c4ccc5cc[nH]c5c4)ccc3n2C)c1 | i | -14%

Compounds above containing two or more sulfur atoms (three):
structure | Vaccinia mCherry | Vaccinia Venus
Cc1ccc(/C=C2/SC(=S)N(CC(=O)Nc3ncc(Cc4ccc(C)cc4)s3)C2=O)cc1 | / | -27%
CCOC(=O)CSc1cc(CS(=O)(=O)c2ccccc2)nc(-c2ccccc2)n1 | / | 8%
CC(=Cc1ccccc1)C=C1SC(=S)N(CCCC(=O)Nc2ccc(C(=O)O)c(O)c2)C1=O | i | -4%

Further records.
structure | Vaccinia mCherry | Vaccinia Venus
Cc1cc(C)n(-c2ccc(C(=O)N3CC(C)OC(C)C3)cc2)n1 (centres undefined) | i | -9%
O=C(NCCN1CCOCC1)c1ccc2ccccc2c1 | -14% | -20%
COc1cc2sc(C)nc2cc1C | -12% | -4%
Cc1cccc2cc(CN(C(=O)c3ccc(N4CCCCC4)cc3)C3CC3)c(N3CCC(O)CC3)nc12 | -21% | -5%
O=C(CCNC(=O)c1ccccc1Cl)Nc1ccc2c(c1)OCCO2 | i | -8%
O=c1[nH]c(SCc2ccccc2)nc2c1sc1ccccc12 | -2% | -5%
COC(=O)c1cc2oc(C)cc2n1Cc1cc(C)ccc1C | -7% | -11%
CCOc1ccccc1C1CC(c2cccs2)=NN1S(C)(=O)=O (centres undefined) | -10% | 2%
O=C(NCc1ccccn1)c1cnn(-c2nccc(-c3ccccc3F)n2)c1C1CC1 | -19% | -3%
COc1ccc2c(c1)c1c(c(=O)n(CCc3ccccc3)c(=O)n1Cc1ccc(Cl)cc1)n2C | -3% | 0%
CCOC(=O)C1=C(N)Oc2cc(O)ccc2C1c1cccc(Cl)c1 (centres undefined) | ? | ?
CCc1ccc(NC(=O)Cn2c3ncccc3c(=O)n2-c2ccc(C)c(C)c2)cc1 | -4%[7.34 µM] | -1%[7.34 µM]
O=C(NCCC1=CCCCC1)C1CCN(c2nnc(-n3cccc3)s2)CC1 | -14% | -17%
CCOC(=O)C1=C[C@@H](C(C)(C)C)N(S(=O)(=O)c2ccc(OC)cc2)[C@H]1c1ccccc1 | i | -5%
Cc1cc(O)ccc1Nc1nc(-c2cccnc2)cs1 | ? | ?
CN(C(=O)COC(=O)CNC(=O)c1ccccc1Cl)c1ccccc1 | 9% | 8%
O=c1c(Cl)c(NCCO)ncn1-c1ccccc1 | -12% | 0%
Cc1noc(C)c1-c1ccc2ncnc(NC3CC3)c2c1 | -10% | 1%
COc1ccccc1C(=O)N(Cc1nc(-c2ccc(Cl)cc2)no1)C(C)C | -12% | 2%
Cc1ccc(C(=O)Nc2ccccc2N2CCCCC2)cc1 | -25% | 10%
CCOC(=O)c1c(Nc2ccccc2)nnc(-c2ccccc2)c1-c1ccccc1 | -11% | -12%
Cc1nn(CC(=O)NC2CCS(=O)(=O)C2)c(C)c1[N+](=O)[O-] (centres undefined) | i | -16%
CC(OC(=O)c1cc[n+]([O-])cc1)C(=O)Nc1ccc(Cl)cn1 (centres undefined) | / | -6%
NS(=O)(=O)c1ccc(CNc2ncnc3sccc23)cc1 | 29% | 0%
COc1ccc(NC(=O)Cn2c(=O)n(CCC(=O)NCCc3ccc(OC)c(OC)c3)c(=O)c3ccccc32)cc1Cl | 11% | 16%
CCc1ccc(-c2nc(C(N)=O)c3[nH]c(=O)n(-c4ccccc4OC)c3n2)cc1 | -17% | ?
CCN(C(=O)C1CCN(S(=O)(=O)c2ccc3c(c2)CCCN3C(C)=O)CC1)c1cccc(C)c1 | 2% | 1%
Cc1csc(=S)n1-c1ccccc1 | / | -5%
